Hsc70 ATP site = Hsc70 inhibitors, probe displacement, primary screen, biochemical, fluorescence polarization (AID 568); 83,000 tested, under 10 active; one-dose displacement, % at 20 µM; IC50 in µM for titrated hits; Hsc70 fluorescence polarization, probe displacement; higher % means a stronger effect; strong numbers were not always called active;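 active means displacement above 50% without optical interference and an IC50 on retest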;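 further: ATPase domain with a fluorescein-tagged ATP probe; 0% = vehicle and 100% = excess ADP; read after one hour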
MT1-MMP promoter = inhibitors of MT1-MMP promoter transcription, cell-based, luciferase reporter, luminescence (AID 618); MT1-MMP promoter luciferase reporter cells, luminescence; calls from a first round at 10 µM; hits with a dose series show EC50 in µM; 0.62% of 87,000 active;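 active means over half of the reporter light lost at 10 µM or EC50 under 50 µM; inactive means the rest and hits that failed the dose series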;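 further: actives suppress MT1-MMP promoter-driven transcription so potencies describe inhibitors; HT1080 fibrosarcoma cells; overnight exposure; toxic or luciferase-blocking compounds were not removed from the actives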
WNV NS2B-NS3 inh = blocks West Nile virus NS2B-NS3 protease activity | AID 577 | WNV NS2B-NS3 protease, fluorogenic substrate Ex360/Em465; hits give low values | z-score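 (tested at a level between 10 and 100 µM)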 | 0.18% of 65,000 active;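 active means z-score at -3 or under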;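 further: score is relative to mean and spread of the compound wells of a plate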
Target sequence (P06935 1371-1501 limits assumed): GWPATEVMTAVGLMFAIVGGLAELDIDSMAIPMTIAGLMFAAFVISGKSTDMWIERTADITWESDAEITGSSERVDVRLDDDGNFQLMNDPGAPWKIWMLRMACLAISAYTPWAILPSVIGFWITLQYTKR
Target sequence (P06935 1502-1679 limits assumed): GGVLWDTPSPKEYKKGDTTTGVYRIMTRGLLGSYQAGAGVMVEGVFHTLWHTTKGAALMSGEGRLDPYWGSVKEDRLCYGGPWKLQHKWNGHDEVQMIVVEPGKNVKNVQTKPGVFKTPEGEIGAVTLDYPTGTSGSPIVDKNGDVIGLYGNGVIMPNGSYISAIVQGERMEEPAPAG
* = called active by the depositor; i = inactive; . = not tested or not shown.

SMILES	Hsc70 ATP site	MT1-MMP promoter	WNV NS2B-NS3 inh
Cc1ccn2cc(C(=O)NC3CCN(Cc4ccccc4)CC3)nc2c1	-6.8%	i	1.1
C=CCN(CC=C)Cc1ccc(C(=O)OC)o1	2.7%	i	.
COCCNC(=O)C(c1cccs1)N(C(=O)Cn1nnc2ccccc21)c1ccc(OC)cc1 (stereo unspecified)	-3.4%	i	.
C=CCn1cc(C(=O)NCc2ccco2)c(=O)c2cc(S(=O)(=O)N3CCCCCC3)ccc21	5.0%	i	-0.11
O=C(CNC(=O)c1cccs1)NCCN1CCN(Cc2ccccc2)CC1	2.6%	i	-1.3
CCN(CC(=O)NC(=O)NC1CCCCC1)Cc1nc2ccccc2c(=O)[nH]1	4.4%	i	.
COCCCn1c(SCc2nc3ccccc3c(=O)[nH]2)nc2ccccc2c1=O	-3.7%	i	.
CCOC(=O)N1CCN(C(=O)CN(Cc2ccc(Cl)cc2)S(=O)(=O)c2ccc(C)cc2)CC1	-5.4%	i	.
CCN(CC)CCN1C(=O)C(=O)/C(=C(/O)c2ccc(Cl)cc2)C1c1ccncc1 (stereo unspecified)	-0.2%	i	0.62
Cn1c(N)c(C(=O)CCl)c(=O)n(C)c1=O	2.6%	i	.
O=C(Nc1ccccc1N1CCOCC1)c1ccc2c(c1)C(=O)N(Cc1ccncc1)C2=O	-6.8%	i	-0.48
CCOC(=O)C(NC(=O)Nc1ncccn1)(Oc1ccccc1)C(F)(F)F (stereo unspecified)	-1.2%	i	-0.62
O=C(COc1ccc(F)cc1)Nc1nccs1	3.9%	i	0.04
N/C(=N\OC(=O)Cc1cccc2ccccc12)c1ccccn1	0.4%	i	.
C=CCSc1nnc(Cc2cc(=O)[nH]c(=O)[nH]2)n1-c1cc(C)ccc1C	-1.3%	i	1.8
COc1cc(NC(=O)c2cc(C(C)C)on2)cc(OC)c1OC	1.6%	i	-0.13
COCCN(C(=O)c1ccco1)C(C(=O)NC1CCCC1)c1cccs1 (stereo unspecified)	-0.2%	i	.
O=C(/C=C(\c1ccc(Cl)cc1)n1cncn1)c1ccc(Cl)cc1	-1.3%	i	.
CCS(=O)(=O)N1CCN(c2cccc(C)c2C)CC1	-1.0%	i	-1.1
O=C(Nc1ccon1)c1cc2c(s1)CCCC2	-1.9%	i	-1.2
CCSc1nc2n(n1)C(c1cccc(F)c1)C1=C(CCCC1=O)N2 (stereo unspecified)	14%	i	-0.88
O=Cc1ccc(O)c(O)c1	3.9%	i	.
CSCCC(N=Cc1c(O)n(-c2ccc(F)cc2)c(=O)[nH]c1=O)C(=O)O (stereo unspecified)	-3.5%	i	-1.1
CC(C)CN1C(=O)NC(NC(=O)c2cccs2)(C(F)(F)F)C1=O (stereo unspecified)	0.8%	i	-1.1
Cc1noc2nc(-c3cccs3)cc(-c3nnc4n3CCCCC4)c12	4.7%	i	6.6

Of the compounds above, three contain an aryl thioether with sulfur outside any ring:
SMILES	Hsc70 ATP site	MT1-MMP promoter	WNV NS2B-NS3 inh
COCCCn1c(SCc2nc3ccccc3c(=O)[nH]2)nc2ccccc2c1=O	-3.7%	i	.
C=CCSc1nnc(Cc2cc(=O)[nH]c(=O)[nH]2)n1-c1cc(C)ccc1C	-1.3%	i	1.8
CCSc1nc2n(n1)C(c1cccc(F)c1)C1=C(CCCC1=O)N2 (stereo unspecified)	14%	i	-0.88

The listing continues:
SMILES	Hsc70 ATP site	MT1-MMP promoter	WNV NS2B-NS3 inh
CCOC(=O)CNc1c(-c2ccccc2)nc2ccc(Cl)cn12	-1.1%	i	.
CC1=C(C#N)C(Nc2cc(C)ccn2)(C(F)(F)F)C(=O)N1 (stereo unspecified)	-4.1%	i	.
CC1CC(=O)N(CC(=O)NCc2ccc3c(c2)OCO3)c2ccccc2S1 (stereo unspecified)	-9.8%	i	-0.87
Cc1cccc(Nc2nnc(SCc3cn4ccsc4n3)s2)c1	-0.2%	i	-1.2
CCN1CCN(Cc2c(O)ccc3c(=O)c(-c4ccc(OC)c(OC)c4)c(C)oc23)CC1	6.2%	i	0.13
Cn1c(=O)c2c(nc(SCC(=O)N3CCc4ccccc4C3)n2C)n(C)c1=O	0.8%	i	0.85
COCn1c(-c2ccccc2)nc2ccccc21	12%	i	-0.41
O=C(CN(C(=O)Cn1nnc(-c2ccc(F)cc2)n1)C1CCCC1)NC1CCCC1	-3.9%	i	-0.59
COc1ccc(OC)c(CNn2c(-c3cccc(C)c3)nc3ccccc3c2=O)c1	2.7%	i	.
CCOC(=O)c1cnc(SCC(=O)Nc2ccc3c(c2)OCCO3)nc1N	-10%	i	0.01
CC(C)C(CCNC(=O)CN1C(=O)c2ccccc2C1=O)c1ccco1 (stereo unspecified)	-7.4%	i	.
O=c1c2cccnc2[nH]c(=S)n1CCCN1CCN(c2ccc(F)cc2)CC1	0.7%	i	-1.1
O=C(Cc1ccc(F)cc1)c1ccc(O)cc1O	18%	i	.
CCOCc1cnc(C)nc1NCC(=O)c1c(C)n(C)c2ccc(OC)cc12	-4.6%	i	0.49
N#Cc1ccccc1NC(=O)Nc1cccs1	-0.7%	i	0.47
COc1cccc(CNC(=O)c2nnn(CC(=O)Nc3ccc(C)c(C)c3)c2N)c1	1.7%	i	1.4
Cc1ccc(-c2csc3nc(C)n(-n4c(C)ccc4C)c(=O)c23)o1	6.0%	i	-0.92
CC(C)(C)OC(=O)N1CCN(c2ccc(NC(=O)Cn3nnc(-c4ccccc4)n3)cc2)CC1	-4.4%	i	.
CC(C)C(c1nnnn1Cc1ccco1)N1CCN(c2cccc(Cl)c2)CC1 (stereo unspecified)	-3.2%	i	-1.1
COc1cccc(NC(=O)c2nc3nc(C)cc(C(F)F)n3n2)c1	-0.6%	i	-0.93
CCOC(=O)C1CCN(S(=O)(=O)c2cccc(-c3cn4cc(C)ccc4n3)c2)CC1	2.2%	i	.
COCC(=O)Nc1cccc(C(F)(F)F)c1	7.1%	i	-0.16
O=C(Cn1c(=O)c2c(ncn2Cc2ccccc2)n(Cc2ccccc2)c1=O)NC1CC1	3.6%	i	0.47
c1ccc(CCC2=NCCn3cccc32)cc1	0.5%	i	-0.03
CCOc1ccccc1NC(=O)C1CC2CCCC(C1)C2=O (stereo unspecified)	0.5%	i	-1.1

Quoted from the listing:
COCn1c(-c2ccccc2)nc2ccccc21 in WNV NS2B-NS3 inh is listed with -0.41
C=CCSc1nnc(Cc2cc(=O)[nH]c(=O)[nH]2)n1-c1cc(C)ccc1C in WNV NS2B-NS3 inh is listed with 1.8

Additional compounds:
SMILES	Hsc70 ATP site	MT1-MMP promoter	WNV NS2B-NS3 inh
CCCCn1c(CCNC(=O)c2cccs2)nc2ccccc21	-3.8%	i	0.52
CN(C)c1nc2sc3c(c2c(=O)n1C)CC(C)(C)OC3	-4.2%	i	-0.53
Cc1[nH]c(=O)[nH]c1CN1CCCCC1	2.0%	i	-0.03
COc1cc(OC)cc(C(=O)N(Cc2cc3cc(C)ccc3[nH]c2=O)C(C)C)c1	-5.5%	i	0.17
CCc1nnc(NC(=O)c2ccc(S(=O)(=O)N(CCOC)CCOC)cc2)o1	-3.1%	i	2.3
COc1ccc(CCNc2oc(COc3ccccc3)nc2C#N)cc1	-1.4%	i	-0.48
CCN1CCN(C(=O)C(NS(=O)(=O)c2ccc3nc(C)sc3c2)C(C)C)CC1 (stereo unspecified)	-0.4%	i	0.79
COc1cccc(Cn2c(N)c(C#N)c3nc4ccccc4nc32)c1OC	-4.9%	i	-0.17
CCn1cc(C(=O)OCC(=O)N(C)C2CCS(=O)(=O)C2)c(=O)c2ccc(C)nc21 (stereo unspecified)	-2.9%	i	1.3
O=C(NCC(c1ccc(F)cc1)N1CCOCC1)c1ccc(Br)o1 (stereo unspecified)	-2.7%	i	0.88
CCCCCn1c(SC(C)C(C)=O)nc2c1c(=O)[nH]c(=O)n2C (stereo unspecified)	1.3%	i	-0.46
CCCc1c(CC)c(=N)c2ccccc2n1C	-3.7%	i	0.26
CCN1C(=O)C(C(=O)NC(C)c2ccccc2)C2CC1(C)Oc1ccccc12 (stereo unspecified)	-1.1%	i	0.14
CCCCN(C(=O)Cn1nnc2ccccc21)C(C(=O)NCCOC)c1cccs1 (stereo unspecified)	3.4%	i	.
CCOCCCNC(=O)C(NC(=O)c1cnccn1)c1ccc(C)cc1 (stereo unspecified)	-0.2%	i	.
O=c1cc(N2CCC3(CC2)OCCO3)[nH]c(=O)n1C1CCCCC1	0.1%	i	0.93
CCOC(=O)/C(=N\Nc1ccc(OC)cc1)c1csc(Nc2ccccc2)n1	-6.3%	i	.
Cc1csc2ncc(C(=O)Nc3ccccc3Cl)c(=O)n12	1.5%	i	-0.03
CCc1c(C)nc2ncnn2c1Nc1ccc(C)c(C)c1	5.3%	i	.
Cc1nc(Oc2ccccc2)c2oc3ccccc3c2n1	2.6%	i	.
CCn1c(N2CCN(C(=O)C34CC5CC(CC(C5)C3)C4)CC2)nc2ccccc21	-0.9%	i	0.39
CCN(CCCn1c(=S)[nH]c2ncccc2c1=O)c1ccccc1	-2.3%	i	-1.3
O=C(CSc1nnc(-c2cccs2)n1-c1ccccc1)N1CCc2ccccc21	0.8%	i	0.5
CCn1nnnc1SCC(=O)Nc1cc(OC)cc(OC)c1	-1.1%	i	0.35
COc1cccc2c3c(c(C)nc12)CC(C)O3 (stereo unspecified)	0.7%	i	-1.5

Single records, as listed above:
Listed for `Cc1csc2ncc(C(=O)Nc3ccccc3Cl)c(=O)n12` = Hsc70 ATP site: 1.5%; MT1-MMP promoter: i; WNV NS2B-NS3 inh: -0.03
Listed for `O=C(CSc1nnc(-c2cccs2)n1-c1ccccc1)N1CCc2ccccc21` = Hsc70 ATP site: 0.8%; MT1-MMP promoter: i; WNV NS2B-NS3 inh: 0.5

The listing picks up, repeating the 3 entries before the break.
SMILES	Hsc70 ATP site	MT1-MMP promoter	WNV NS2B-NS3 inh
O=C(CSc1nnc(-c2cccs2)n1-c1ccccc1)N1CCc2ccccc21	0.8%	i	0.5
CCn1nnnc1SCC(=O)Nc1cc(OC)cc(OC)c1	-1.1%	i	0.35
COc1cccc2c3c(c(C)nc12)CC(C)O3 (stereo unspecified)	0.7%	i	-1.5
O=C(c1cccc(Cl)c1)N1CCN(C2CCCCCC2)CC1	-7.1%	i	-0.87
COc1ccc(-c2noc(N(C)CC(=O)Nc3cccc(C(F)(F)F)c3)n2)cc1	-0.1%	i	0.75
Cn1c(Cl)nc2ccccc21	8.8%	i	-0.89
COCCn1c(SCc2nc3sc(C(=O)OC)c(C)c3c(=O)[nH]2)nc2ccccc21	-21%	i	1.9
Cc1ccc(N2CN=c3s/c(=C\c4cccnc4)c(=O)n3C2)cc1	6.0%	i	-0.04
Cc1ccc2c(c1)N(CCCC(=O)NCCCN1CCCC1=O)C(=O)CO2	3.8%	i	0.49
Cc1ccc2c(c1)NC(=O)C(CC(=O)NC1CCCCC1C)O2 (stereo unspecified)	5.4%	i	0.01
CCCOc1ccc(C2C(C(=O)c3ccco3)=C(O)C(=O)N2CCN2CCOCC2)cc1OC (stereo unspecified)	-1.4%	i	0.75
CC(=O)NCC(=O)N(c1c(C)n(C)n(-c2ccccc2)c1=O)C1(C(=O)NC2CCCC2)CCCCC1	-1.0%	i	-0.69
CC1CCCN(c2nc3c(c(=O)n(C)c(=O)n3C)n2CCSc2nc3ccccc3s2)C1 (stereo unspecified)	4.1%	i	-0.05
CCOC(=O)CSc1nnc(CSc2nc3sc4c(c3c(=O)[nH]2)CCC4)n1-c1ccccc1	6.0%	i	.
N=c1n(CCO)c2ccccc2n1Cc1ccccc1Cl	0.2%	i	-0.4
COC(=O)CSc1nnc(-c2ccc(S(=O)(=O)N3CCC(C)CC3)cc2)o1	-0.1%	i	0.62
Cc1cc(N2CCN(S(=O)(=O)c3ccc(C)c(C)c3)CC2)c2ccccc2n1	0.4%	i	.
Cc1ccc(NC(=O)N(Cc2cccnc2)Cc2ccco2)cc1C	3.7%	i	.
Cc1ccc(C(C(=O)NC2CCCC2)N(Cc2cccnc2)C(=O)c2snc(C(N)=O)c2N)o1 (stereo unspecified)	0.1%	i	-0.74
Cn1cccc1-c1nc2ccc(NC(=O)c3cccs3)cc2[nH]1	-2.1%	i	0.48
Cc1cccc(N(C(=O)CNC(=O)c2ccco2)C(C(=O)NC2CCCC2)c2cccnc2)c1 (stereo unspecified)	-7.7%	i	0.02
c1cncc(C(c2nnnn2C2CCCCC2)N2CCN3CCCC3C2)c1 (stereo unspecified)	-0.7%	i	.
CC(C)(C)n1ncc2c(=O)n(CC(=O)N3CCCc4ccccc43)cnc21	-3.0%	i	-0.14
c1cc(-c2noc(-c3ccc4c(c3)OCO4)n2)ccn1	3.9%	i	0.13
Cc1cccc(N(CC(=O)NCc2ccc3c(c2)OCO3)C(=O)CCC(=O)Nc2ccccn2)c1C	-0.8%	i	-0.19
COc1ccc(OC)c(CNC(=O)COc2cc(=O)n(C)c3ccccc23)c1	-5.1%	i	0.13
CCc1ccc2[nH]c(=O)c(CN(Cc3ccco3)S(=O)(=O)c3ccc4c(c3)OCCO4)cc2c1	-6.8%	i	-0.66
Cc1nn(-c2ccccc2)c(N2CCCC2)c1/C=N/O	-0.4%	i	.
O=C(NCCCCCNC(=O)c1ccco1)c1ccco1	-2.6%	i	1.8
O=C(Oc1ccc2[nH]cc(CCN3C(=O)c4ccccc4C3=O)c2c1)c1ccco1	0.5%	i	-0.12
O=C1C2CCCN2C(c2ccccc2)N1c1nccs1 (stereo unspecified)	2.8%	i	0.61
CCOc1nc(NCCN2CCOCC2)nc(Nc2ccc(C)cc2)n1	0.8%	i	.
O=C(CN1C(=O)NC2(CCCCCC2)C1=O)N1CCC(Cc2ccccc2)CC1	2.2%	i	-0.67

Bioassay records as filed in PubChem.
